Screening data as filed in PubChem BioAssay.
LT uptake inh: inhibitors of anthrax lethal toxin internalization. 70,000 compounds, 0.67% hits. AID 912. Potency, µM (highest dose often 40 µM), for inactives: at the highest dose activity change, negative = inhibition, most hits filed as inhibitors. Cells, anthrax lethal toxin internalization, FRET ratio (460/530); active = well fitted falling ratio curve with the 530 nm signal flat; inconclusive = other ratio curves, or a change in one channel alone; inactive = flat curves in the ratio and both channels; the % refers to the ratio; further: on the % scale 0 is the no-effect control and ±100 the full control effect; nearly all actives have a fitted effect of over 50% in size; tested in ME-180 cells; beta-lactamase reporter
SmPrx2 inh: Schistosoma mansoni Prx2 inhibition | AID 448 | S. mansoni Prx2 activity coupled to TGR/GSH (TGR is thioredoxin glutathione reductase), NADPH fluorescence loss, qHTS; some inactives read as strong as hits | 65,000 compounds, 0.07% hits | Potency, µM; active means full or partial inhibition curve with a strong effect at the top dose; inconclusive means weaker partial or single-point curve; inactive means no accepted curve; further: series up to 57 µM; many of its hits are not listed in these tables
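Prx2 inhibition was measured as reduced NADPH consumption when electrons flowed from NADPH through TGR and glutathione to Prx2 and H2O2. Plates were read kinetically over 8 min; enzyme reagents were held at 4 deg C during dispensing.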
* = called active by the depositor; ? = inconclusive; · = no result given; [ ] = remark or other dose. Potency means the concentration at half of the fitted maximal effect. Some of the compounds tested; the hit share may differ from the screen's.

Each structure is followed by: LT uptake inh, SmPrx2 inh
- O=C(CN1CCN(Cc2ccc(Cl)cc2)C1=O)N1CCC2(CC1)OCCO2
  16%, >57
- O=C(Cc1ccccc1)N1CCN(C2CCCC2)CC1
  ·, >57
- COc1ccc(C(CC(=O)N2CCC3(CC2)OCCO3)NS(=O)(=O)c2ccc(C)cc2)cc1 (centres undefined)
  1%, >57
- Cc1occc1C(=O)Nc1ccc(S(=O)(=O)N2CCN(C)CC2)cc1
  -8%, >57
- CCOC(=O)c1cnn(-c2cc(C)nc3c(-c4ccccc4)cnn23)c1N
  ?, >57
- CC(C)CC1(C)NC(=O)NC1=O (centres undefined)
  0%, >57
- COc1cc(NS(=O)(=O)c2cc(C)ccc2OC)c(OC)cc1Cl
  -5%, >57
- COc1ccc(S(=O)(=O)Nc2ccccc2OC)cc1C
  1%, >57
- O=C(O)CCCC(=O)NCCCc1ccccc1
  -9%, ·
- NS(=O)(=O)c1ccc(N=C2C(=O)Nc3ccccc32)cc1
  0%[8 µM], >57
- Cc1cc2oc(C(=O)Nc3c(C)n(C)n(-c4ccccc4)c3=O)c(C)c2cc1C
  ?, >57
- Cc1cc(C)c(C#N)c(SCC(=O)c2cccs2)n1
  ?, >57
- COc1ccc(C2C(C(=O)N3CCN(c4ccc(OC)cc4)CC3)c3ccccc3C(=O)N2C)cc1 (centres undefined)
  ?, >57
- CC(=O)c1c(C)nn(C(C)CC(=O)O)c1C (centres undefined)
  ·, >57
- COc1cccc(C(C(=O)NC(C)(C)C)N(C(=O)CCC(=O)Nc2cc(C)on2)C(C)C)c1OC (centres undefined)
  -14%, >57
- Cc1ccc(C2CC(=O)c3cnc(N4CC(C)CC(C)C4)nc3C2)cc1 (centres undefined)
  -4%, >57
- Cc1ccc(S(=O)(=O)Nc2ccccc2F)cc1C(=O)NCCCN1CCCC1=O
  0%, >57
- COc1ccc(Cl)cc1C(=O)Nn1c(C)nc2ccccc2c1=O
  7%, >57
- Cc1cc(C)c2nc(N3CCCN(C(=O)c4ccco4)CC3)c(C#N)cc2c1
  ?, >57
- OCCc1ccc(-c2ccc(Cl)cc2)o1
  6%, >57

(cont.)
Each structure is followed by: LT uptake inh, SmPrx2 inh
- COc1ccc(S(=O)(=O)Cc2ccc(C(=O)NCc3ccccn3)o2)cc1
  ?, >57
- CC[C@@H](Nc1ncnc2nc[nH]c12)C(=O)O
  -5%[8 µM], >57
- CCc1cccc2nc3c(c([Si](CC)(CC)CC)c12)Cn1c-3cccc1=O
  ?, >57
- Cc1onc(-c2ccccc2Cl)c1C(=O)NCCCN1CCOCC1
  -3%, >57
- Cc1ccccc1OCC(=O)N(Cc1nc(-c2ccccc2)no1)C(C)C
  -6%, >57
- COCCNC(=O)c1ccc(CS(=O)(=O)c2ccc(OC)cc2)o1
  -9%, >57
- O=C1NCN(c2ccccc2)C12CCN(c1nnnn1-c1ccccc1)CC2
  -18%, >57
- CN1C(=O)OC2(C)CCc3ccccc3C12C (centres undefined)
  9%, >57
- CCOC(=O)c1csc(Nc2nc3ccc(F)cc3s2)n1
  5%, >57
- COC(=O)c1ccccc1NC(=O)c1c(O)c2c([nH]c1=O)CCCC2
  -1%, >57
- CCN(CC)C(=O)N[C@H]1C=C2c3cccc4[nH]cc(c34)C[C@@H]2N(C)C1
  4%[3.58 µM], >57
- COc1cc(C)c(-c2cc(C(=O)O)c(C)o2)cc1C(C)C
  -6%, >57
- Cc1cc2oc(=O)cc(COC(=O)Cn3cnnn3)c2cc1C(C)C
  -6%, >57
- CCS(=O)(=O)N1CCN(C2CCC(c3ccccc3)CC2)CC1 (centres undefined)
  -22%, >57
- Cc1cccc(-n2c(Cc3cc(=O)[nH]c(=O)[nH]3)nnc2SC(C)C)c1
  10%, >57
- O=C(CSCc1ccco1)Nc1cc(C(F)(F)F)ccc1N1CCOCC1
  -26%, >57
- O=C1c2ccc(Oc3ccc4c(c3)C(=O)N(CCCO)C4=O)cc2C(=O)N1CCCO
  -27%, >57
- COc1ccc(C(c2sc3nc(C)nn3c2O)N2CCC(C(N)=O)CC2)cc1OC (centres undefined)
  0%, >57
- COc1ccc(Cl)cc1N1C(=O)C2CCCN2C1c1ccc(F)c(F)c1 (centres undefined)
  -18%, >57
- O=C(NCC1COc2ccccc2O1)c1ccc(NC(=O)c2ccco2)cc1 (centres undefined)
  7%, >57

Additional entries
Each structure is followed by: LT uptake inh, SmPrx2 inh
- O=[N+]([O-])c1cc(Cl)c(Cl)c(Cl)c1Cl
  ?, ·
- CCOC(=O)C1Cn2c(nc3c(c2=O)C(C)(CC)Cc2ccccc2-3)S1 (centres undefined)
  6.3µM*, ·
- O=C(OCC(=O)c1cccs1)c1ccccc1
  -7%, ·
- CCc1cc(C(=O)c2ccccc2OC)c(N)s1
  -6%, >57
- N=c1sccn1CC(=O)Nc1cccc(Oc2ccccc2)c1
  ?, >57
- O=C(C1CCCO1)N1CCN(C(c2ccccc2)c2ccccc2)CC1 (centres undefined)
  ?, ·
- COc1ccc(CCNC(=O)CSc2nnc(CNc3ccc(Cl)cc3)o2)cc1OC
  -17%, >57
- CC1(C)Oc2ccc(NC(=O)C3COc4ccccc4O3)cc2O1 (centres undefined)
  ?, >57
- CCOC(=O)N1CCN(C(=O)CN(c2ccc(Oc3ccccc3)cc2)S(C)(=O)=O)CC1
  0%, ·
- CC1=C(C(=O)OCc2ccccc2)C(C2CC2)NC(=O)N1CCCCCC(=O)O (centres undefined)
  ?, ·
- COCCNS(=O)(=O)c1cc(OC)c(Cl)cc1Cl
  -13%, >57
- Cc1[nH]c2ccccc2c1C(=O)CN1CCSCC1
  ?, >57
- O=C(NC12CC3CC(CC(C3)C1)C2)c1ccc(S(=O)(=O)N2CCOCC2)cc1
  5%, ·
- CCOC(=O)COn1c(=O)c(=O)n(O)c2ccccc21
  -7%, ·
- CCOC(=O)C1=C(C)NC(C)=C(C(=O)OCC)C1c1ccccn1
  3%, >57
- COc1ccc(CN(Cc2ccccn2)S(=O)(=O)c2ccc(-n3cnnn3)cc2)cc1
  -5%, >57
- O=C(Nc1cccnc1)c1c(F)c(F)c(F)c(F)c1F
  ?, ·
- COc1cc(C2C(C#N)=C(N)Oc3cc(N(C)C)ccc32)cc2c1OCO2 (centres undefined)
  ?, >57
- COC(=O)c1ccccc1S(=O)(=O)Nc1ccc(OC)nc1
  -16%, >57
- Cc1ccc(S(=O)(=O)N2CCC(C(=O)N3CCN(Cc4ccccc4)CC3)CC2)cc1
  7%, >57

Following part:
Each structure is followed by: LT uptake inh, SmPrx2 inh
- Cc1cc(C)cc(NC2=NC3(CCCCC3)N=C(N)N2)c1
  ?, ·
- COc1cc(NC(=O)c2noc3c2CCC3)c(OC)cc1Cl
  -10%, >57
- O=c1[nH]c(CSc2nnc(COc3ccccc3)n2-c2ccccc2)nc2ccccc12
  -14%, >57
- COCCn1c(=O)c(-c2ccc(Cl)cc2)nc2cnc(N3CCNCC3)nc21
  ?, >57
- CCCc1cc(C(=O)OC)c(NC(=O)OCC)s1
  -2%, >57
- Cc1nc2cc(-c3cccc(F)c3)nn2c(C)c1CCC(=O)NC(C)CCc1ccco1 (centres undefined)
  ?, ·
- O=C(Nc1ccon1)c1ccc(Cl)s1
  0%, >57
- Nc1ccc2c(c1)-c1ccccc1S(=O)(=O)N2
  -2%, >57
- Cc1c(C(=O)NCC2COc3ccccc3O2)oc2ccc(S(=O)(=O)N3CCOCC3)cc12 (centres undefined)
  5%, >57
- Cc1cccc(-n2c(SCc3cc(=O)n4ccsc4n3)nc3ccccc32)c1
  -25%, >57
- NC(=O)C1CCN(C(=O)CN(c2cccc(C(F)(F)F)c2)S(=O)(=O)c2ccccc2)CC1
  -1%, ·
- Clc1cccc2sc(N3CCN(c4ccccc4)CC3)nc12
  ·, >57
- CS(=O)(=O)c1cccc(C(=O)NCc2ccccc2)c1
  -21%, >57
- OC1(c2ccccc2F)CC2CCC(C1)N2CCN1CCOCC1 (centres undefined)
  -5%, >57
- C/C=C1\C[C@H](C)[C@@](O)(CO)C(=O)OCC2=CCN3CC[C@@H](OC1=O)[C@@H]23
  0%[3.58 µM], >57
- O=C(Nc1cccnc1)c1coc(=O)c2ccccc12
  18%, >57
- COc1ccc2c(c1)cc1n2CCN=C1N
  10%, >57
- C[C@@H](C(=O)NCc1ccccn1)[C@@H]1C[C@@]1(C)[C@@H](NC(=O)OCc1ccccc1)c1ccccc1
  4%, >57
- CN(Cc1ccco1)c1nc(-c2cccc(C#N)c2)nc2ccccc12
  ?, >57
- O=C(NCCCN1CCOCC1)C1CC(=O)N(C2CCCCC2)C1 (centres undefined)
  1%, >57

(next part)
Each structure is followed by: LT uptake inh, SmPrx2 inh
- CC1CCCC(C)N1CCNC(=O)C1CCN(S(=O)(=O)N2CCCCC2)CC1 (centres undefined)
  0%, >57
- CCCCc1nc(SCC(=O)Nc2cc(C)on2)n[nH]1
  5%, >57
- O=C(c1ccccc1)c1ccc2nc(N3CCCCC3)c3nncn3c2c1
  ?, >57
- Cc1nc2cnc(N(C)C)nc2n(Cc2cccs2)c1=O
  -7%, >11
- Cc1nc2ccccc2cc1C[N+]12CN3CN(CN(C3)C1)C2
  1%[8 µM], >57
- CC1CCN(C(=O)CSc2nc(N)c3c4c(sc3n2)CN(C)CC4)CC1
  -9%, >57
- c1ccc(-c2nc3ccccc3s2)nc1
  ?, >57
- CC(C)c1nc2oc3c(NCC4CCCO4)ncnc3c2c2c1COC(C)(C)C2 (centres undefined)
  -1%, >57
- Cn1cccc1Cc1nnc(SCC(=O)N2CCc3ccccc32)n1-c1ccc(F)cc1
  -3%, >57
- COC(=O)c1ccc(CN2CCN(Cc3ccccc3)CC2)cc1
  2%, ·
- O=C(NCCc1c[nH]c2ccccc12)[C@H]1C[C@@H]1[C@H](NP(=O)(c1ccccc1)c1ccccc1)c1ccccc1
  ?, >57
- CN1CC[C@@]2(CCCN(C(=O)Oc3ccccc3)C2)C1
  7%, >57
- COc1ccc(OC)c(C(=O)CC2OC(=O)c3ccccc32)c1 (centres undefined)
  5%, >57
- COc1cc(CSc2nnnn2-c2ccc(C)cc2)cc(OC)c1OC
  -9%, >57
- CC1=C(C(=O)NCCCOC(C)C)C2(CCC(C)CC2)OC1=O (centres undefined)
  -2%, >57
- Cc1cc(C)c2nc(N3CCC(C(=O)N4CCCC4)CC3)sc2c1
  7%, >57
- CCC(=O)N1CCc2cc(S(=O)(=O)NC(Cc3ccccc3)C(=O)NC3CCCC3)ccc21 (centres undefined)
  5%, >57
- COc1ccc(C(=O)N2CCC3(CCCN(Cc4ccccc4OC)C3)CC2)cc1
  ?, >57
- Clc1cccc(OCCn2cncn2)c1Cl
  -27%, >57
- CCN(CC)CCCn1c(=S)[nH]c2ccccc2c1=O
  -6%, >57

Part of the list above, field by field.
CC1CCN(C(=O)CSc2nc(N)c3c4c(sc3n2)CN(C)CC4)CC1
- LT uptake inh = -9%
- SmPrx2 inh = >57

COC(=O)c1ccc(CN2CCN(Cc3ccccc3)CC2)cc1
- LT uptake inh = 2%
- SmPrx2 inh = ·

COc1cc(CSc2nnnn2-c2ccc(C)cc2)cc(OC)c1OC
- LT uptake inh = -9%
- SmPrx2 inh = >57

CCN(CC)CCCn1c(=S)[nH]c2ccccc2c1=O
- LT uptake inh = -6%
- SmPrx2 inh = >57

Carrying on.
Each structure is followed by: LT uptake inh, SmPrx2 inh
- CCC(C)NC(=O)c1ccccc1NC(=O)CN1C(=O)c2ccccc2S1(=O)=O (centres undefined)
  4%, >57
- O=C(COc1ccccc1Cl)N1CCN(c2ccc(F)cc2)CC1
  ?, >57
- O=C(CN1CCN(S(=O)(=O)c2ccc(F)cc2)CC1)Nc1cc(C(F)(F)F)ccc1Cl
  -27%, >57
- COc1ccccc1N1CCN(CC(=O)Nc2ccc(CN3CCCCC3)cc2)CC1
  -6%, >57
- Cc1ccc(N2CC(C(=O)NCCC(C)C)CC2=O)cc1 (centres undefined)
  -2%, >57
- COc1ccc(CN2CC(C(=O)NCCN3CCOCC3)CC2=O)cc1 (centres undefined)
  -11%, >57
- O=S(=O)(c1cccs1)N1CCN(Cc2nc3ccccc3s2)CC1
  ?, >57
- CCc1nc(SCC(=O)Nc2ccnc3ccccc23)n[nH]1
  2%, >57
- CCCc1[nH]nc2c1C(c1ccccc1OCC)C(C#N)=C(N)O2 (centres undefined)
  -4%, >57
- CN(C)C(=O)c1ccc(-c2ccc3ncnc(N(C)C)c3c2)cc1
  -8%, >57
- CCOC(=O)c1c(C)c(C(=O)Nc2ccc3c(c2)OCCO3)c(C)n1CC
  -14%, >57
- CCNc1ncc2nc(C)c(=O)n(Cc3ccc(F)cc3)c2n1
  ?, >57
- Cc1cc(C)n2nc(SCC(=O)N(C(C)C)C(C)C)nc2n1
  10%, >57
- O=C(CSc1ccc2c(c1)OCCO2)NC(=O)NC1CCCC1
  24%, >57
- Cc1nc(N2CCN(c3ncccn3)CC2)c2oc3ccccc3c2n1
  1%, >57
- O=C(OCC(=O)N1CCCC1)c1cncc(Br)c1
  ?, >57
- Cc1cc(C)c(C#N)c(SCS(=O)Cc2ccc(Cl)cc2)n1 (centres undefined)
  -19%, >57
- S=P(c1ccc(N2CCOCC2)cc1N1CCOCC1)(N1CCOCC1)N1CCOCC1
  6%, >57
